RE007 growth inh = less growth of the S. pombe RE007 Vpr strain; Potency, µM (series often up to 92.2 µM), for inactives: at the top dose activity change, negative = less growth; AID 651644; 360,000 compounds, 0.21% hits; S. pombe RE007 Vpr strain, BacTiter-Glo ATP luminescence, 24 h; control for the full effect not named in the record; active = well fitted falling curve with a large enough effect; inconclusive = small, poorly fitted or top-dose-only effect; inactive = no such curve, though single readings can be large or run the other way;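 note: % is set by controls: 0 for no effect and ±100 for the full control effect; nearly all actives have a fitted effect of over 50% in size; the assay follows cell death caused by Vpr and the record does not say whether a fall means rescue or toxicity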
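Fission yeast strain RE007, carrying one chromosomally integrated HIV-1 vpr copy, was seeded at OD 0.01 in PMG+AL medium with 23 nL pinned compound. After 24 h at 30 °C and 99% humidity, viability was read by BacTiter-Glo luminescence.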
MARV entry inh = Marburg virus entry inhibition; Potency, µM (series often up to 37.8 µM), for inactives: at the top dose activity change, negative = inhibition, hits mostly inhibitors; Marburg virus pseudotyped entry inhibition, cell reporter; control for the full effect not named in the record; about a third of the inactives were read at about 46 µM; 300,000 compounds, 1.8% hits; AID 540276; active = well fitted inhibition curve with a large enough effect; inconclusive = small, poorly fitted or top-dose-only effect, or effect the other way; inactive = flat fitted curve, though single readings scatter; tested in HEK293 cells; about a fifth of its hits are not listed in these tables; note: % is set by controls: 0 for no effect and ±100 for the full control effect; luciferase read-out
SARS PLP yeast = blocks SARS-CoV papain-like protease in a yeast assay | S. cerevisiae expressing SARS-CoV PLpro, growth rescue; control for the full effect not named in the record | Potency, µM (doses to about 32.9 µM), without a hit: top-dose activity, positive = growth rescue | 330,000 compounds, 0.19% hits | AID 485353; note: 0% is about no effect; nearly all actives have a fitted effect of over 55% in size; growth read by luminescence after 48 h
LASV entry inh = Lassa virus entry inhibition; Lassa virus pseudotype entry inhibition, cell reporter; control for the full effect not named in the record; Potency, µM (highest dose often 37.9 µM), for inactives: at the top dose activity change, negative = inhibition, actives largely listed as inhibitors; 300,000 compounds, 1.2% hits; active means well fitted inhibition curve with a large enough effect; inconclusive means small, poorly fitted or top-dose-only effect, or effect the other way; inactive means flat fitted curve, though single readings scatter; tested in HEK293 cells; note: % is set by controls: 0 for no effect and ±100 for the full control effect; nearly all actives have a fitted effect of over 50% in size; luciferase read-out
NS1 function inh = inhibitors of influenza NS1 protein function. 270,000 compounds, 0.4% hits. S. cerevisiae slowed by influenza A NS1, growth recovery by OD600. Potency, µM (highest dose often 46.1 µM), for inactives: top-dose activity, positive = more growth; note: actives are rising curves; nearly all actives have a fitted effect of over 50% in size
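OD600 was taken as the measure of yeast growth restored by compound in an NS1-expressing S. cerevisiae strain. Cells had been washed out of glucose medium and diluted 1:100 into galactose -URA medium, pH 6.0.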
2A StopGo = lowers the luciferase signal of an FMDV 2A StopGo reporter | 410,000 compounds, 1.2% hits | AID 1159524 | Potency, µM (titrated, usually from 57.9 µM), inactives show top-dose signal change, negative = less light | human cells with a luciferase reporter of 2A StopGo recoding; control for the full effect not named in the record; active = well fitted falling curve with a large enough effect; inconclusive = small, poorly fitted or top-dose-only effect; inactive = no such curve, though single readings can be large or run the other way; tested in HEK293T cells; note: % is set by controls: 0 for no effect and ±100 for the full control effect; nearly all actives have a fitted effect of over 45% in size; luciferase light after 4 h
Cruzain inh noDet = inhibitors of Trypanosoma cruzi cruzain without detergent; P25779; purified cruzain, Z-FR-AMC fluorescence, no detergent; Potency, µM, for the others: max response, negative = inhibition, most hits filed as inhibitors; 200,000 compounds, 2.3% hits; active = well fitted curve in the direction sought with a large enough effect; inconclusive = small, poorly fitted or top-dose-only effect, or another doubt; inactive = no such curve, though single readings can be large; an effect the other way counts as inactive or inconclusive;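 note: plate controls were enzyme without inhibitor for no effect and buffer without enzyme for full effect; nearly all actives have a fitted effect of over 40% in size; top concentration of the series not given in the record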
Target sequence (P25779 123-467 limits assumed): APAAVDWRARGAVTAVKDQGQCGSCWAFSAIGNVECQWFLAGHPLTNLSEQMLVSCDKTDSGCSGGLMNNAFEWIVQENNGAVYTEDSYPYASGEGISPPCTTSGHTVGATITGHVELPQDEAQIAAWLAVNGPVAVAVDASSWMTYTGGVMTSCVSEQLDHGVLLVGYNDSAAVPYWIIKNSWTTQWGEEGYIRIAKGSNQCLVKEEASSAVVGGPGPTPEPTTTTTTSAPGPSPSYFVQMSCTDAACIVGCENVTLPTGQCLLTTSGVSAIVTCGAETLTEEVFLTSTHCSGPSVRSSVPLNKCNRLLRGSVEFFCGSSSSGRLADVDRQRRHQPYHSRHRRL
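Purified cruzain at 1.5 nM, pre-incubated 15 min with compound at room temperature in 100 mM sodium acetate pH 5.5, 5 mM DTT, 0.00005% Triton X-100. Reaction started with 2 uM Z-FR-AMC; AMC fluorescence increase over 60 s gives rate.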
Cruzain inh Det = blocks cruzain activity in presence of Triton detergent; purified cruzain, Z-FR-AMC fluorescence, 0.01% Triton; Potency, µM, for the others: max response, negative = inhibition, usual class: inhibitors; 200,000 compounds, 0.43% hits; active = well fitted curve in the direction sought with a large enough effect; inconclusive = small, poorly fitted or top-dose-only effect, or another doubt; inactive = no such curve, though single readings can be large; an effect the other way counts as inactive or inconclusive;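 note: plate controls were neutral wells for no effect and buffer without enzyme for full effect; nearly all actives have a fitted effect of over 40% in size; top concentration of the series not given in the record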
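Z-FR-AMC hydrolysis (2 uM substrate) by cruzain (1.5 nM) monitored kinetically at ex 360/em 450 nm after 15 min room-temperature compound exposure; 0.01% Triton X-100, pH 5.5, 5 mM DTT.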
* hit, by the source's call; ? = inconclusive; . = no result given; & = joins results of further samples; [ ] = remark or other dose. Unless noted, calls come from the whole dose curve; as a rule, active means well fitted rising curve with a large enough effect; inconclusive means small, poorly fitted or top-dose-only effect; inactive means no such curve, though single readings can be large or run the other way. Potency is the fitted concentration of half-maximal effect.

Molecule | MARV entry inh | Cruzain inh Det | RE007 growth inh | Cruzain inh noDet | SARS PLP yeast | NS1 function inh | 2A StopGo | LASV entry inh
COc1cccc(OC)c1C(=O)NC(=S)N1CCCCC1c1cccnc1 (stereo not given) | . | . | -13% | . | 1% | 18% | -12% | .
CC(=O)c1c(C)[nH]c(C(=O)OCC(=O)N(Cc2ccccc2)C(C)(C)C)c1C | ? | . | -1% | . | -2% | . | -21% | -28%
COCCN1C(=O)C(=O)/C(=C(/O)c2ccc(S(=O)(=O)N3CCOCC3)cc2)C1c1cccc(Cl)c1 (stereo not given) | 8%[46.1 µM] | . | -12% | . | 0% | -1% | -19% | 6%[46.1 µM]
COc1ccc(CNN2CCCCC2C(=O)Nc2ccc(OC)c(OCC(C)C)c2)cc1OC (stereo not given) | . | . | -4% | . | 0% | 2% | -27% | .
CC1=NN(c2ccc(C)cc2)C(=O)/C1=C\C=C\c1ccccc1 | 3% | -8.7% | -4% | ? | -6% | 8% | 28µM* | 10%
COc1ccc(OC)c(S(=O)(=O)NCC(c2ccc(F)cc2)N2CCN(C)CC2)c1 (stereo not given) | -12%[46.1 µM] | . | 22% | . | 0% | . | -2% | 3%
CCN(CC(=O)Nc1cc(Cl)ccc1C)C(=O)c1ccc(=O)n(Cc2ccccc2)n1 | 5% | . | 12% | . | 4% | -3% | -3% | 1%
CC(NC(=O)C(C)N1C(=O)c2ccccc2C1=O)c1ccccc1 (stereo not given) | 0% | . | 32% | . | 0% | 8% | -16% | -3%
O=C(Cn1cc(C(=O)C2CC2)c2ccccc21)Nc1ccc(F)cc1 | ? | . | -12% | . | 1% | 7% | -2% | 3%[46.1 µM]
CCc1cccc(NC(=O)C2CCCN(S(=O)(=O)c3c(C)[nH]c(=O)[nH]c3=O)C2)c1 (stereo not given) | 0%&0% | 4.9% | -4% | -12% | . | 1% | -22% | -3%
CC1C(=O)N2CCCc3cc(NC(=O)COc4ccccc4)cc1c32 (stereo not given) | 2% | . | -17% | . | 4% | . | 17% | 6%
CC(C)c1csc(CN2CCC(n3nccc3NC(=O)Cc3ccccc3)CC2)n1 | 22% | . | -9% | . | 3% | 6% | ? | -6%
CCOC(=O)c1cccc(NC(=O)c2cc(CN3CCCC3)on2)c1 | . | -1.7% | . | -9% | . | . | 67%[activator] | 2%[46.1 µM]
Nc1cc(=O)[nH]c(SCC(=O)Nc2ccccc2Sc2ccccc2)n1 | ? | . | 22% | . | 1% | . | -18% | ?
O/N=C/c1cc(Cl)ccc1OCc1ccccc1Cl | ? | -5.1% | -27% | -2% | -10% | 9% | -19% | ?
CC(Nc1ccc2c(c1)OCCO2)C(=O)N1CCc2ccccc21 (stereo not given) | 0%[46.1 µM] | . | 9% | . | 2% | -4% | 9% | 15%[46.1 µM]
CCc1ccc(NC(=O)c2sc3nc4n(c(=O)c3c2C)CCC4)cc1 | . | . | -6% | . | -10% | -14% | -3% | .
COc1ccc(NC(=O)c2oc3ccc(S(=O)(=O)N(C)C4CCCCC4)cc3c2C)cc1Cl | . | 1.2% | . | -12% | . | . | -19% | 12%[46.1 µM]
O=C(c1cccs1)N1N=C(c2ccccc2)CC1c1ccccc1O (stereo not given) | ? | . | 2% | . | 0% | 12% | 2% | 30%[46.1 µM]
CCCCNC(=O)COC(=O)c1ccc(C)c(NC(=O)c2ccco2)c1 | ? | . | -3% | . | -3% | . | -9% | -26%
Cc1ccccc1NC(=S)NCc1cccn1C | 16% | -2.5% | 1% | 1% | 2% | 20% | 5% | -3%
c1cnc2ccc(C(c3nnnn3C3CCCC3)N3CCN(c4nc5ccccc5s4)CC3)cc2c1 (stereo not given) | ? | -1.2% | 12% | -25% | 3% | ? | ? | -8%
COCc1ccc(C(=O)N2CCCC(N(C)Cc3ccccc3)C2)s1 (stereo not given) | 7% | . | 19% | . | 1% | 13% | -16% | -23%
C/C(=N/NC(=O)CCC(=O)Nc1ccc(Br)cc1)c1ccc(Br)cc1 | 13% | . | -3% | . | -2% | -1% | 11% | ?
O=C1N=c2ccccc2=C1c1sc(NS(=O)(=O)Cc2ccccc2)nc1O | . | . | 1% | . | 1% | 0% | 94%[activator] | .
N#C/C(C(=O)NCc1ccccc1)=C1/N=C(NC(=O)c2ccco2)c2ccccc21 | -3%[46.1 µM] | . | -14% | . | 1% | -2% | -27% | ?
NC(=O)c1c(C(F)(F)F)cc(-c2ccccc2)nc1NCCO | 13% | -3.6% | -16% | 8% | -1% | -3% | ? | -2%
O=C(Nc1cccc(Cl)c1)c1ccc2c(=O)n3c(nc2c1)CCCCC3 | ? | -8.7% | -21% | ? | 0% | -86% | -38% | ?
NC(=O)c1nnn(-c2nonc2N)c1-c1ccc([N+](=O)[O-])cc1 | . | . | -2% | . | 0% | 2% | -7% | .
O=[N+]([O-])c1ccccc1CSc1nnc2ccccn12 | ? | . | -15% | . | -1% | . | 13% | 13%
CC(=O)Nc1ccc(S(=O)(=O)N(Cc2ccccc2)Cc2ccccc2)cc1 | . | -9.1% | . | ? | . | . | 11% | ?
CNc1nccc(-c2ccc(F)cc2)c1C#N | 10%[46.1 µM] | . | 2% | . | 4% | . | 1% | 18%[46.1 µM]
CCNC(=O)Nc1ccc(S(=O)(=O)Nc2cnc(C)nc2C)cc1 | 8%[46.1 µM] | . | 12% | . | 4% | -2% | 18% | 10%[46.1 µM]
CC(C)Oc1ccc(CNC(=O)c2cc3ccccn3n2)cc1 | . | -1.0% | . | -13% | . | . | 44%[activator] | ?
CC1(C)Cc2cccc(OCC(=O)Nc3cc(C(F)(F)F)ccc3N3CCOCC3)c2O1 | 29%[46.1 µM] | -3.1% | -30% | -12% | 16% | 5% | ? | 0%
CCOC(=O)N1CCN(C(=O)CN(c2cccc(Cl)c2)S(=O)(=O)c2ccccc2)CC1 | 29%[46.1 µM] | -3.0% | . | ? | . | . | 12% | -27%[46.1 µM]
COc1cccc(OCCNS(=O)(=O)c2cccc([N+](=O)[O-])c2)c1 | . | . | 9% | . | 0% | -4% | 9% | .
CCc1ccc(OCCOCCN2CCN(C)CC2)cc1 | . | . | -4% | . | 5% | -6% | 6% | .
OC12CCCCC1C(c1ccc3c(c1)OCO3)N(Cc1cccc(F)c1)CC2 (stereo not given) | ? | -1.2% | -8% | 3% | -3% | -24% | ? | ?
CC1CC1C(=O)OCC(=O)NCc1ccccc1 (stereo not given) | -12% | . | 10% | . | 2% | . | 9% | 1%
Cc1ccc(S(=O)(=O)CCSc2nc(C)cc(C(F)(F)F)c2C#N)cc1 | -47% | -9.7% | -16% | -10% | -25% | -3% | ? | ?
COc1ccc(C=O)cc1O | 1% | 0.2% | -1% | -4% | -2% | 12% | 2% | -5%
CCN(C(=O)CN1C(=S)NC(C)(C)CC1C)c1ccc(C)c(C)c1 (stereo not given) | 9%[46.1 µM] | . | -5% | . | 10% | 8% | 3% | .
O=c1[nH]c(COc2ccccc2)nc2ccccc12 | . | . | 2% | . | 0% | -5% | 67%[activator] | .
CC1CCN(C(=O)COC(=O)c2cc(S(=O)(=O)N3CCOCC3)ccc2Cl)CC1 | -28%[46.1 µM] | . | 15% | . | -2% | . | -21% | -11%
CN1CCN(C(=S)Nc2ccc(Cl)c(Cl)c2)CC1 | ? | -1.5% | -16% | -8% | 11% | 2% | 54%[activator] | 0%
COCCN1Cc2cccc(C(=O)NCc3cccnc3)c2C1=O | . | -4.6% | 28% | -1% | -1% | -28% | -18% | .
Cc1ccc(S(=O)(=O)Nc2ccc(F)cc2)cc1C(=O)N1CCOCC1 | ? | . | 3% | . | -1% | . | 46%[activator] | -2%[46.1 µM]
CC(C)(C)NC(=S)NC(=O)C12CCC3CC(CC(C3)C1)C2 | . | . | 3% | . | 1% | 3% | 0% | .
CCOc1ccccc1CNC(=O)CN1C(=O)CCc2cc(S(=O)(=O)N3CCCCC3)ccc21 | . | -2.1% | . | ? | . | . | 13% | 22%[46.1 µM]
COC(=O)C1=C(C)C(c2ccc(OC)cc2)NC(=S)N1 (stereo not given) | 1% | 2.8% | 10% | -6% | 5% | 15% | -20% | 3%
FC(F)(F)c1cccc(OCCOCCn2cncn2)c1 | 12%[46.1 µM] | -4.7% | -2% | -3% | 6% | -5% | 11% | 2%
Cn1c(=O)cc(OCC(=O)N2CCC(N3CCCCC3)CC2)c2ccccc21 | . | 1.6% | 1% | 6% | -4% | ? | -13% | .
Cc1ccc(N2CC(NC(=O)c3ccc(S(=O)(=O)N4CCOCC4)cc3)CC2=O)cc1 (stereo not given) | . | -1.2% | . | 13% | . | . | -13% | -10%[46.1 µM]
O=C(CSc1ccc(Cl)cc1Cl)N1CCC(c2nc3ccccc3s2)CC1 | 4% | 0.3% | 22% | 5% | -3% | -13% | -5% | -19%
CC(=O)c1cnc2c(-c3ccc(Cl)cc3)cnn2c1C | ? | -0.6% | -16% | -1% | -6% | 2% | 43% | ?
O=C(CSc1nnnn1CCCO)Nc1ccc2c(c1)OCO2 | 22%[46.1 µM] | . | -9% | . | 2% | . | ? | 0%
CCN(Cc1ccccc1)C(=O)CSc1n[nH]c(N)n1 | -22%[46.1 µM] | . | 2% | . | 4% | 9% | 2% | -8%

3 compounds picked at random from the list so far:
Molecule | MARV entry inh | Cruzain inh Det | RE007 growth inh | Cruzain inh noDet | SARS PLP yeast | NS1 function inh | 2A StopGo | LASV entry inh
CCOc1ccccc1CNC(=O)CN1C(=O)CCc2cc(S(=O)(=O)N3CCCCC3)ccc21 | . | -2.1% | . | ? | . | . | 13% | 22%[46.1 µM]
Cc1ccc(S(=O)(=O)Nc2ccc(F)cc2)cc1C(=O)N1CCOCC1 | ? | . | 3% | . | -1% | . | 46%[activator] | -2%[46.1 µM]
COCCN1Cc2cccc(C(=O)NCc3cccnc3)c2C1=O | . | -4.6% | 28% | -1% | -1% | -28% | -18% | .
